# Screening data: PubChem, several laboratories
# GALR2 agonist: agonists of human galanin receptor 2 (GALR2) | 140,000 compounds, 0.48% hits | O43603 | activation, %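 (tested at 5 µM)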 | GALR2-expressing cells, agonist activation read-out;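 active means above mean plus 3 SD of all compounds, about 5% in these data, not always enough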;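 further: 0% = vehicle buffer wells and 100% = reference agonist at full effect; tested in CHO reporter cells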
# Target sequence (O43603 whole entry, looked up): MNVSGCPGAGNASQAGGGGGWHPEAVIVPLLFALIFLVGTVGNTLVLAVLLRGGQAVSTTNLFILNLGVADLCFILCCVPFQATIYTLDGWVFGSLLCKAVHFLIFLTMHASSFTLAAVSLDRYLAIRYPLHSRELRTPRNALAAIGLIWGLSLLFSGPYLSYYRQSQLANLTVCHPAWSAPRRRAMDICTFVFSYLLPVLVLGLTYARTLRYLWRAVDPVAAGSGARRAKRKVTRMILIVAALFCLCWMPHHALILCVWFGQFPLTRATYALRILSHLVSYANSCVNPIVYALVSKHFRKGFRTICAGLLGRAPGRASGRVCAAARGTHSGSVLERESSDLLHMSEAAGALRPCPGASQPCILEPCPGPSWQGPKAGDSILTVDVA
# PKD1 inh: blocks activity of human protein kinase D1 | 200,000 compounds, 0.056% hits | AID 797 | inhibition, %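 (about 10 µM by stock and volumes)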 | Q15139 | PKD1 kinase fluorescence polarization assay;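 active means inhibition of 50% or more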;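 further: controls were vehicle for no effect and a reference inhibitor for full effect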
# INS promoter inh: TRM-6 insulin promoter activity inhibition. TRM-6 cells (human fetal islet line), insulin promoter-eGFP reporter, imaging; reporter expression induced with tamoxifen. inhibition, % at 2 µM. 130,000 compounds, 0.9% hits. AID 1273;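 active means inhibition above the mean plus 3 SD, with well images judged a real hit on visual review, cut at about 60% in these data, passing the limit was not always enough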
# RGS16-Gao HTS: modulates binding between human RGS16 and Galphao; O15492+P09471; bead-based flow cytometry RGS16-Galphao binding, fluorescence; actives lie on both sides; binding response (% of control), % at 10 µM; 220,000 compounds, 0.38% hits; AID 1441;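 active means below 25% or above 175%, edge rows of some plates excepted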;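 further: Galphao activated by GDP with aluminum fluoride before binding; 100% = wells without compound and 0% = beads without RGS; some results beyond the cut were filed as inactive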
# Target sequence (O15492 whole entry, looked up): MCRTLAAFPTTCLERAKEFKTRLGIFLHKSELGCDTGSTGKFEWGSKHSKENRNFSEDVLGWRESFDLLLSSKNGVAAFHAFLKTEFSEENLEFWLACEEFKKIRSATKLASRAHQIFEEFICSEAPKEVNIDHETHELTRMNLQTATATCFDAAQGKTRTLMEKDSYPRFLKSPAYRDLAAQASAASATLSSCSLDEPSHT
# Target sequence (P09471 whole entry, looked up): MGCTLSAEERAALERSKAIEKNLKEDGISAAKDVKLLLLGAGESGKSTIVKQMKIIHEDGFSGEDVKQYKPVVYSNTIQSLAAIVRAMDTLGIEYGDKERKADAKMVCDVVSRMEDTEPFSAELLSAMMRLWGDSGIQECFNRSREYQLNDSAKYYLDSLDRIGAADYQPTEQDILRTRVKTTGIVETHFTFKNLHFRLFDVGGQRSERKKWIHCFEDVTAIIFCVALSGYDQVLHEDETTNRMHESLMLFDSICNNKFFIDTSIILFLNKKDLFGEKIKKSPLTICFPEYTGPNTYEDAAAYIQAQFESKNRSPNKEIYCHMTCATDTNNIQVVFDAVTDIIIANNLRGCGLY
# HSV replic up: increases HSV replication in cells; 220,000 compounds, 0.005% hits; HSV replication augmentation in cells, fold increase; maximum fold increase;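 active means peak rise of 1.5-fold or more in the series; tested in PC3 cells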;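 further: first round at 10 µM; read as green reporter fluorescence; hits show the peak of a series up to 25 µM; 1 = signal of infected wells without compound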
# INS promoter inh cell count: second read-out of INS promoter inh, no call of its own (marks repeat the call); normalized cell count, %; measured here: cell count, toxicity; reference of the scale not given here;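 cells exposed to compound for 48 h; stained nuclei by imaging scaled within each plate; lower means fewer cells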
# HSV replic up primary fold: further read-out of HSV replic up, marked with its call; fold increase; compound at 10 µM; measured here: primary screen fold increase 10 uM; tested in PC3 cells;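 GFP signal in the first replicate; 1 = infected wells without compound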
# An asterisk follows results filed as active; i = inactive; . = no result given.
# A first look, 21 compounds:
structure	GALR2 agonist	PKD1 inh	INS promoter inh	INS promoter inh cell count	RGS16-Gao HTS	HSV replic up	HSV replic up primary fold
CCn1c(=O)c(C(=O)Nc2ccsc2C(=O)OC)c(O)c2ccccc21	0.1	-5	.	.	102	i	1.1
O=C1c2ccccc2C2(c3ccccc3)NCCN12 (stereo unspecified)	-1.9	4	.	.	106	i	1.1
Cc1ccc(C)c(NC(=S)NC2CC3CCC(C2)N3Cc2ccco2)c1 (stereo unspecified)	-1.9	3	.	.	100	i	0.81
COc1ccc(/C=C/C(=O)Nc2cccc(C(C)=O)c2)cc1	-1.6	8	8	64	100	i	0.94
CCN(CC)c1ccc(NC(=O)COC(=O)c2ccc3ccccc3n2)cc1	-0.4	-6	23	99	100	i	0.94
CC(=O)NC(Cc1cccc(C)c1)C(=O)NC1CCN(c2ncccc2[N+](=O)[O-])CC1 (stereo unspecified)	-0.7	-6	.	.	97	i	0.99
Cc1ccccc1NS(=O)(=O)c1ccc2[nH]cc(C(=O)N(C)Cc3ccco3)c(=O)c2c1	-1.0	-16	.	.	98	i	0.97
COc1ccc(OC(C)C(=O)NCc2cccnc2)cc1 (stereo unspecified)	-0.2	-2	32	129	99	i	1
Cc1ccc(S(=O)(=O)Nc2ccc(S(=O)(=O)Nc3cc(C)nc(C)n3)cc2)cc1	.	-1	-22	164	88	i	0.92
CCOc1ccc(S(=O)(=O)NN2Cc3ccccc3C2=N)cc1	.	-6	-14	88	121	i	1
COc1ccc(Cl)cc1NC(=O)NC(C)C(C)(C)C (stereo unspecified)	.	-3	.	.	103	i	1.1
Cc1ccc(C(=O)N2CCN(c3ccc(NC(=O)c4ccc(Br)o4)cc3)CC2)cc1	-3.0	-8	-50	111	102	i	0.81
N/C(=N\OC(=O)c1cccc(Cl)c1)c1ccncc1	.	-6	.	.	110	i	1.1
COc1ccc(NC(=O)COc2ccccc2)c(OC)c1	16*	-4	11	100	97	i	0.91
O=C(COC(=O)CC1CC2CCC1C2)Nc1cc([N+](=O)[O-])ccc1F (stereo unspecified)	.	-9	.	.	102	i	0.91
O=C(COC(=O)CNC(=O)C12CC3CC(CC(C3)C1)C2)Nc1ccccc1	-2.4	0	14	93	104	i	0.96
N/C(=N\OC(=O)CC(c1ccccc1)c1ccccc1)c1cccnc1	.	-6	-68	97	104	i	1.2
CC(=O)N1CC=CC1(CC(C)C)C(=O)NCCN1CCOCC1 (stereo unspecified)	0.1	6	48	79	118	i	1.2
CCOC(=O)c1sc(NC(=O)C(OC(C)=O)c2ccccc2)nc1C (stereo unspecified)	-0.6	-1	-11	101	86	i	0.91
COc1ccc(OC)c(/C(O)=C/C(=O)C(=O)Nc2cc(C)ccc2OC)c1	-1.8	0	19	95	710	i	0.96
O=c1c2cnn(-c3ccccc3)c2nnn1Cc1ccccn1	-3.5	-14	62	97	105	i	1

# The whole of this part, previewed entries included:
structure	GALR2 agonist	PKD1 inh	INS promoter inh	INS promoter inh cell count	RGS16-Gao HTS	HSV replic up	HSV replic up primary fold
CCn1c(=O)c(C(=O)Nc2ccsc2C(=O)OC)c(O)c2ccccc21	0.1	-5	.	.	102	i	1.1
O=C1c2ccccc2C2(c3ccccc3)NCCN12 (stereo unspecified)	-1.9	4	.	.	106	i	1.1
Cc1ccc(C)c(NC(=S)NC2CC3CCC(C2)N3Cc2ccco2)c1 (stereo unspecified)	-1.9	3	.	.	100	i	0.81
COc1ccc(/C=C/C(=O)Nc2cccc(C(C)=O)c2)cc1	-1.6	8	8	64	100	i	0.94
CCN(CC)c1ccc(NC(=O)COC(=O)c2ccc3ccccc3n2)cc1	-0.4	-6	23	99	100	i	0.94
CC(=O)NC(Cc1cccc(C)c1)C(=O)NC1CCN(c2ncccc2[N+](=O)[O-])CC1 (stereo unspecified)	-0.7	-6	.	.	97	i	0.99
Cc1ccccc1NS(=O)(=O)c1ccc2[nH]cc(C(=O)N(C)Cc3ccco3)c(=O)c2c1	-1.0	-16	.	.	98	i	0.97
COc1ccc(OC(C)C(=O)NCc2cccnc2)cc1 (stereo unspecified)	-0.2	-2	32	129	99	i	1
Cc1ccc(S(=O)(=O)Nc2ccc(S(=O)(=O)Nc3cc(C)nc(C)n3)cc2)cc1	.	-1	-22	164	88	i	0.92
CCOc1ccc(S(=O)(=O)NN2Cc3ccccc3C2=N)cc1	.	-6	-14	88	121	i	1
COc1ccc(Cl)cc1NC(=O)NC(C)C(C)(C)C (stereo unspecified)	.	-3	.	.	103	i	1.1
Cc1ccc(C(=O)N2CCN(c3ccc(NC(=O)c4ccc(Br)o4)cc3)CC2)cc1	-3.0	-8	-50	111	102	i	0.81

# The listing continues:
structure	GALR2 agonist	PKD1 inh	INS promoter inh	INS promoter inh cell count	RGS16-Gao HTS	HSV replic up	HSV replic up primary fold
N/C(=N\OC(=O)c1cccc(Cl)c1)c1ccncc1	.	-6	.	.	110	i	1.1
COc1ccc(NC(=O)COc2ccccc2)c(OC)c1	16*	-4	11	100	97	i	0.91
O=C(COC(=O)CC1CC2CCC1C2)Nc1cc([N+](=O)[O-])ccc1F (stereo unspecified)	.	-9	.	.	102	i	0.91
O=C(COC(=O)CNC(=O)C12CC3CC(CC(C3)C1)C2)Nc1ccccc1	-2.4	0	14	93	104	i	0.96
N/C(=N\OC(=O)CC(c1ccccc1)c1ccccc1)c1cccnc1	.	-6	-68	97	104	i	1.2
CC(=O)N1CC=CC1(CC(C)C)C(=O)NCCN1CCOCC1 (stereo unspecified)	0.1	6	48	79	118	i	1.2
CCOC(=O)c1sc(NC(=O)C(OC(C)=O)c2ccccc2)nc1C (stereo unspecified)	-0.6	-1	-11	101	86	i	0.91
COc1ccc(OC)c(/C(O)=C/C(=O)C(=O)Nc2cc(C)ccc2OC)c1	-1.8	0	19	95	710	i	0.96
O=c1c2cnn(-c3ccccc3)c2nnn1Cc1ccccn1	-3.5	-14	62	97	105	i	1
COc1ccc(/C=N/NC(=O)c2cc(C(C)(C)C)[nH]n2)cc1COc1ccc(F)cc1F	.	-6	.	.	102	i	0.91
Cn1c2c(c(=O)n(C)c1=O)CN(CCCN1CCOCC1)CN2	-2.8	-6	-46	62	110	i	0.76
O=C1C(Cl)=C(NCC2CCCO2)C(=O)N1CCc1ccccc1 (stereo unspecified)	-3.1	4	i	28	102	i	1.1

# The list continues:
structure	GALR2 agonist	PKD1 inh	INS promoter inh	INS promoter inh cell count	RGS16-Gao HTS	HSV replic up	HSV replic up primary fold
CSc1ccccc1NC(=O)C(=O)c1c[nH]c2ccccc12	.	4	.	.	82	i	0.98
c1cncc(-c2nnc3n2N=C(c2cccs2)CS3)c1	0.6	-4	18	90	66	i	0.77
S=C(NCC1CCCO1)Nc1cc(Cl)c(Cl)cc1Cl (stereo unspecified)	.	0	.	.	112	i	0.75
NC(=O)c1ccc(NC(=S)NCc2ccco2)cc1	.	5	7	172	98	i	1
CC1=NN(c2ccc(Cl)c(C(=O)O)c2)C(=O)C1	-0.8	-10	9	100	87	i	1.1
CCC(=O)N1c2ccc(S(=O)(=O)CCC(=O)NCCC3=CCCCC3)cc2CC1C (stereo unspecified)	-1.6	-7	38	30	104	i	0.92
CCn1cc(CNC(=O)/C=C/c2ccc([N+](=O)[O-])cc2)c(C)n1	-2.7	8	0	143	103	i	1.2
CN1C(=O)CC(n2c(CO)nc3ccccc32)C1=O (stereo unspecified)	-0.7	-6	13	46	142	i	0.98
COc1ccccc1/C=C/C(=O)Nc1nc(N)n(-c2ccccc2)n1	.	.	.	.	104	i	1.2
NC(=O)CSc1nc2ccccc2n1-c1ccccc1	-1.1	-4	-342	31	117	i	0.84
Cc1cccc(C2c3[nH]c4ccccc4c3CCN2Cc2cnn(-c3ccc(F)cc3)c2)n1 (stereo unspecified)	.	-1	10	142	105	i	0.88
N#C/C(=C1/C(=O)Nc2ccc(Br)cc21)c1ccccn1	.	-7	.	.	102	i	0.91

# (cont.)
structure	GALR2 agonist	PKD1 inh	INS promoter inh	INS promoter inh cell count	RGS16-Gao HTS	HSV replic up	HSV replic up primary fold
COc1ccc(/C=C/C(=O)c2ccccc2)cc1COc1ccc(F)cc1	-0.1	5	.	.	99	i	0.77
CCOC(=O)C1C(=O)C=C(c2ccc(Br)cc2)CC1c1ccco1 (stereo unspecified)	0.7	4	-39	103	91	i	0.93
CCN1/C(=C2\C(=O)N(C)C(=S)N2C)C=Cc2ccccc21	-1.2	5	.	.	107	i	1
O=C(Cn1cnc2ccccc2c1=O)Nc1ccc(S(=O)(=O)N2CCOCC2)cc1	.	4	.	.	95	i	0.92
NC(=S)NC1CC2CC1C1C=CCC21 (stereo unspecified)	.	.	.	.	100	i	0.65
O=C(COc1ccccc1)NCc1nnc(SCC(=O)Nc2nccs2)n1-c1ccccc1	-3.6	-14	.	.	95	i	0.73
COc1ccccc1CNC(=S)NCCc1ccccc1	1.0	5	17	81	97	i	0.93
CCOC(=O)C1CCN(c2c(Nc3ccc(C)c(C)c3)c(=O)c2=O)CC1	.	.	.	.	107	i	0.98
CC(=O)Oc1ccccc1-n1c(C)nc(=O)c(-c2ccccc2)c1C	.	.	.	.	100	i	0.98
NNC(=O)c1ccc(Cn2cc(Cl)cn2)cc1	-0.3	-5	-8	177	113	i	0.85
c1ccc(Cc2nc3ccccc3n2Cc2ccccc2)cc1	-1.6	-3	-16	139	108	i	0.87
Cc1cc(C(=O)N/N=C/c2ccc([N+](=O)[O-])s2)n[nH]1	.	.	.	.	102	i	0.77

# Other results
structure	GALR2 agonist	PKD1 inh	INS promoter inh	INS promoter inh cell count	RGS16-Gao HTS	HSV replic up	HSV replic up primary fold
Cc1cc(NS(=O)(=O)c2ccc(NC(=O)CSc3nc4sc(C)c(C)c4c(=O)[nH]3)cc2)no1	.	-5	38	126	105	i	0.83
COc1ccc(CCNC(=O)C(=O)NCCOc2ccccc2)cc1OC	-2.2	-9	22	100	96	i	1
C=CCC(C#Cc1ccccc1)N(C)C (stereo unspecified)	-0.2	-5	-9	77	106	i	0.98
O=[N+]([O-])c1ccc(Nc2ccc(N3CCOCC3)cc2)c([N+](=O)[O-])c1	.	-2	-12	103	104	i	1
Cc1ccc(S(=O)(=O)N(C)CC(=O)OCC(=O)N2CCCC2=O)cc1	.	-3	.	.	105	i	1.1
O=C(CSc1n[nH]c(-c2ccncc2)n1)c1ccccc1	-1.6	-15	.	.	98	i	1.1
CC1(C)CC(=O)C(CC2CCCCC2=O)C(=O)C1 (stereo unspecified)	.	.	.	.	105	i	1.1
CCOC(=O)N1CCN(C(=O)CN(C)S(=O)(=O)c2ccc3c(c2)c(=O)n(C)c(=O)n3C)CC1	.	6	36	120	101	i	1
CCc1ccc2c(c1)/C(=C/C(=O)c1cccs1)C(=O)N2	2.1	-10	-3	119	96	i	0.62
COc1cc(-c2nc(CN3CCN(CC(C)C)C(=O)[C@@H]3C)c(C)o2)ccc1F	.	-2	-270	93	107	i	1
COc1ccc(NC(=O)CN(C)S(=O)(=O)c2cccc3cccnc23)cc1	-1.1	-11	.	.	108	i	0.91
FC(F)(F)c1ccc2nnc(-c3c(Cl)cccc3Cl)n2c1	-1.1	3	-5	43	105	i	0.87
O=C(Nc1ccccc1)O/N=C1\CCCCC1c1ccc([N+](=O)[O-])cc1[N+](=O)[O-] (stereo unspecified)	-1.2	2	14	104	97	i	0.99
